CtBP-E1A inh – blocks the CtBP interaction with E1A; AlphaScreen GST-E1A/His-CtBP binding, 1536-well; active compounds read low; control for the full effect not named in the record; activity change, % (test concentration not listed); 0.49% of 340,000 active; in the data active means activity change below about -65%; inconclusive means about -30% to -65%; inactive means above about -30%; note: % is set by controls: 0 for no effect and ±100 for the full control effect
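GST-E1A and His-tagged CtBP (125 nM each as 5X stock) were preincubated with pin-transferred compound for 2 h at 37 °C in the dark, then glutathione donor and nickel acceptor beads were added for 1 h before AlphaScreen reading.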
D2 potentiator – positive allosteric modulators of human D2 dopamine receptor | P14416 | DiscoveRx D2 beta-arrestin cells, luminescence, 90 min; 100% = 57 uM dopamine signal | potentiation, % (no concentration beside the values) | 0.23% of 360,000 active | AID 624464; active = potentiation of 50% or more; inconclusive = 30% to 50%; inactive = 30% or less;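 note: compound concentration not given in the record; tested on top of an EC20 dose of dopamine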
Target sequence (P14416 whole entry, looked up): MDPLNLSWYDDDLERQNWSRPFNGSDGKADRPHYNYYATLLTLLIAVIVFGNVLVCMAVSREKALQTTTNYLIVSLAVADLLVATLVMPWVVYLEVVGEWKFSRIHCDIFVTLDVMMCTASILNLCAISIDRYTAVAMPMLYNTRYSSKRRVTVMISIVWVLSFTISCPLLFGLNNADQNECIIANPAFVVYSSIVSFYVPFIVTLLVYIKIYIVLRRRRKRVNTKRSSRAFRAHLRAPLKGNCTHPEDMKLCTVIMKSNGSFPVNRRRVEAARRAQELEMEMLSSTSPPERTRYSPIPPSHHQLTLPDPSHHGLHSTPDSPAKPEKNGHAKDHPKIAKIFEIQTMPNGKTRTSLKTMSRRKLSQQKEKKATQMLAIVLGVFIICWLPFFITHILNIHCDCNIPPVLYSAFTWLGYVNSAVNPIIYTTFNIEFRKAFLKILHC
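PathHunter D2 cells, attached overnight at 37 deg C, received compound in DMSO plus dopamine at EC20 (50 nM final) for 90 min at 37 deg C. Beta-arrestin recruitment was read as luminescence after 1 h with detection reagent at ambient temperature.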
Six1-Eya2 inh – blocks human Six1 binding to Eya2; Q15475+O00167; AlphaScreen GST-Six1/His-Eya2 binding, biochemical; active compounds read low; control for the full effect not named in the record; activity change, % (test concentration not listed); 0.56% of 360,000 active; AID 651725; in the data active = activity change below about -65%; inconclusive = about -30% to -65%; inactive = above about -30%; note: % is set by controls: 0 for no effect and ±100 for the full control effect
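AlphaScreen luminescence read after one hour at 37 °C in darkness. Pin-transferred compounds met GST-Six1 and His-Eya2 protein (5X stock 250 nM/500 nM) plus glutathione donor and Ni-chelate acceptor beads (5X, 50 ug/mL).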
gsp antag – antagonizes gsp, the McCune-Albright syndrome mutation; 0.4% of 340,000 active; gsp-mutant cells, cAMP HTRF, 30 min; control for the full effect not named in the record; Potency, µM (top dose mostly 76.9 µM), for the others: at the highest dose activity change, negative = inhibition, most hits filed as inhibitors; AID 624288; active = falling curve of any shape with a large fitted effect; inconclusive = falling curve, mostly with a smaller effect; inactive = flat or rising curve; cell line not stated here;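 note: intracellular cAMP measured with PDE inhibitor Ro 20-1724 present during compound exposure; potency is the fitted concentration of half-maximal effect; % is set by controls: 0 for no effect and ±100 for the full control effect; nearly all actives have a fitted effect of over 65% in size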
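Cells in G418 medium, seeded 16-24 h, 37C; buffer exchange to DPBS + 1 mM CaCl2, 0.5 mM MgCl2, 0.05% BSA; cpds in DMSO + […] (300 uM stock), 30 min 37C; HTRF cAMP detection.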
D2 agonist – activates the human D2 dopamine receptor; P14416; DiscoveRx PathHunter D2 beta-arrestin, luminescence, 90 min; 100% = 57 uM dopamine signal; activation, % (no concentration beside the values); 0.084% of 360,000 active; AID 624465; in the data active = activation above about 40%; inconclusive = about 15% to 40%; inactive = below about 15%; note: compound concentration not given in the record; the text of the record calls up to 30% inactive
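DiscoveRx PathHunter D2 beta-arrestin cells (2,100/well) attached overnight, then compound-stimulated 90 min at 37 C in HBSS/10 mM HEPES/0.1% Tween-20 buffer; beta-galactosidase complementation read by luminescence after 1 h at ambient temperature. Dopamine 57 uM final (EC100) as control.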
gsp agonist – agonists of gsp mutant (McCune-Albright syndrome) | gsp mutant cells, cAMP HTRF, 30 min; control for the full effect not named in the record | Potency, µM (highest dose often 76.9 µM), for the others: at the top dose activation (cAMP increase), most hits filed as activators | 0.13% of 340,000 active; active = well fitted activation curve with a large enough effect; inconclusive = small, poorly fitted or top-dose-only effect, or another doubt; inactive = no such curve, though single readings can be large or run the other way; cell line not stated here;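 note: phosphodiesterase inhibitor Ro 20-1724 added with compounds to block cAMP breakdown; potency is the fitted concentration of half-maximal effect; nearly all actives have a fitted effect of over 60% in size; about a fifth of the inactives were tested at one dose only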
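Cells stably selected in G418 were plated at 2000/well, grown 16-24 hr, then given compounds in DMSO with the PDE inhibitor […] (300 uM solution added) for 30 min at 37C; cAMP was read by HTRF.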
* = called active by the depositor; u = inconclusive; x = not tested or not shown; [ ] = another dose, or the depositor's remark.

SMILES	CtBP-E1A inh	D2 potentiator	Six1-Eya2 inh	gsp antag	D2 agonist	gsp agonist
O=C1CC(c2ccco2)=Nc2ccccc2N1	-2	1	2	12%	0.7	0%
COC(=O)c1cc(C)nc(Nc2nc(C(N)Cc3ccc(Cl)cc3)cs2)n1 (stereo not drawn)	-17	-8	-27	x	3.3	x
O=C(CCC(=O)c1cccs1)NCc1ccc(F)cc1	-3	-5	4	0%	-0.1	3%
O=C(COc1coc(CN2CCc3ccccc3C2)cc1=O)Nc1ccc(Cl)cc1	6	-30	3	-10%	-1.3	-2%[15.4 µM]
NS(=O)(=O)c1ccc(Nc2nc(-c3ccc(O)cc3O)cs2)cc1	-80*	6	-67*	-14%	-1.4	-57%[inhibitor]
CCOC(=O)N1CCN(C(=O)CN(c2cc(Cl)ccc2OC)S(=O)(=O)c2ccccc2)CC1	3	-16	11	-9%	-5.3	-17%
CN1CCN(c2ccc(S(=O)(=O)N3CCOCC3)cc2)CC1	1	6	4	9%	-2.8	-2%
COCc1nnc(NC(=O)c2cccc(NC(=O)c3ccccc3)c2)s1	0	-4	3	-1%	-5.4	-8%[15.4 µM]
COc1ccccc1/C=C/C=N/n1c(-c2ccc(F)cc2)n[nH]c1=S	-1	-6	-13	-4%	1.6	16%
C=CCN(CC=C)Cc1cc(=O)oc2cc(C)c(C)cc12	-11	-6	12	x	-2.2	x
O=C(COc1ccc(S(=O)(=O)Nc2ccccc2)cc1)NCc1ccccn1	-1	-3	1	9%	-2.8	-10%[15.4 µM]
Cc1ccc2c(C)nc(N/C(N)=N/S(=O)(=O)c3ccccc3)nc2c1	-17	-4	5	5%	1.4	-5%[15.4 µM]
O=C(O)c1sccc1SCc1ccc(Cl)c(Cl)c1	6	10	0	-29%	-2.1	3%
CC(=O)c1ccc(NC(=S)NCCc2ccc(S(N)(=O)=O)cc2)cc1	-23	-6	-10	-13%	-0.1	5%[15.4 µM]
CCN(C(=O)CSc1nc2ccc(Cl)cc2[nH]1)C1CCS(=O)(=O)C1 (stereo not drawn)	4	7	-1	9%	2.3	5%[15.4 µM]
O=C(NC1CCCCC1)C1CCN(c2ncccn2)CC1	8	-7	8	7%	-3.5	19%[15.4 µM]
NC(=O)C1CCN(C(=O)c2ccc([N+](=O)[O-])cc2NC(=O)c2cccs2)CC1	-15	6	-5	8%	-1.4	6%
CC(OC(=O)c1ccc([N+](=O)[O-])o1)C(=O)Nc1nc(-c2ccc(F)c(F)c2)cs1 (stereo not drawn)	0	66*	-12	-24%	7.0	-4%[15.4 µM]
CCOC(=O)c1ccc(N2C(=O)CC(NC3CCN(C(=O)c4cccc(Cl)c4)CC3)C2=O)cc1 (stereo not drawn)	-6	-1	-3	-18%	-3.0	10%
CC(=O)NS(=O)(=O)c1ccc(NC(=O)c2ccccc2F)cc1	7	-7	5	6%	1.6	-30%
CC(C)C[C@@H](CNCC(=O)[C@H](Cc1ccccc1)NC(=O)c1[nH]cnc1C(=O)N[C@@H](C)CN)NC(=O)c1nc[nH]c1C(=O)N[C@@H](CC(=O)O)C(=O)O	-13	-14	-11	5%	-3.9	x
CC(=O)Nc1cc(Cl)c(N=Cc2ccc(O)cc2O)cc1Cl	14	-1	-10	-10%	0.8	-29%
COc1ccc(Br)c(C(=O)OCC(=O)N2CCc3ccccc32)c1	7	-1	9	-8%	-2.7	-2%[15.4 µM]
CCN(CC)S(=O)(=O)c1ccc(C(=O)N2CCN(C(=O)c3ccco3)CC2)cc1	6	-2	-1	8%	-0.1	-72%[inhibitor]
C=CCOc1nc2c(c(=O)n(C)c(=O)n2C)n1Cc1ccc(Cl)cc1	8	-2	13	4%	3.0	-29%
Remaining list, next part
SMILES	CtBP-E1A inh	D2 potentiator	Six1-Eya2 inh	gsp antag	D2 agonist	gsp agonist
O=C(Nc1ccc(-n2cnnn2)cc1)c1cccc(S(=O)(=O)N2CCCC2)c1	-3	3	2	1%	2.7	2%
c1ccc(Nc2nc3ccccc3[nH]2)nc1	-8	-28	-17	2%	-3.9	-25%
COc1ccc(Nc2ccc(N3C(=O)CCCC3=O)cc2[N+](=O)[O-])c(OC)c1	-10	-10	-21	19%	-3.5	0%
COc1ccc(CNC(=O)C(=O)N2CCC3(CC2)OCCN3S(=O)(=O)c2ccc(C)cc2)cc1	1	-9	8	-7%	4.1	-1%[15.4 µM]
COc1ccc(-c2cc(CNC(=O)CN3CCN(C)CC3)on2)cc1	1	-8	-5	-17%	-1.5	-5%
CC(C)(C)OC(=O)n1cccc1/C=C1\c2ccccc2C(=O)N1c1ccccc1	1	x	0	-11%	0.9	x
COc1ccc(NC(=O)COC(=O)c2ccc(S(=O)(=O)N3CCCCCC3)cc2)c(OC)c1	2	21	2	14%	7.5	13%
Cc1ccc(S(=O)(=O)N2CCCCC2)cc1NC(=O)c1cccs1	-2	-5	-5	-1%	0.0	4%
O=C(N/N=C/c1ccc2ncccc2c1)c1cccc([N+](=O)[O-])c1	-7	-4	-25	-5%	4.1	-15%
CN(C)S(=O)(=O)c1ccc(NC=C(C#N)C#N)cc1	u	-4	-14	0%	0.3	u
Cn1c(Cc2ccccc2)nnc1SCC(=O)N1CCOCC1	4	-3	1	8%	-2.1	28%
CCOC(=O)Nc1nc(C)c(C(=O)c2ccc(Cl)cc2)s1	-6	-27	15	-3%	-1.0	6%
CC(C)CC(NC(=O)C1CCCN1C(=O)OC(C)(C)C)C(=O)NCC(N)=O (stereo not drawn)	0	-4	5	-5%	-1.1	-33%[inhibitor]
COc1nccc(-c2ccc(F)cc2)c1C#N	-11	-20	31	x	-5.4	-5%[15.4 µM]
C=CCOC(=O)/C(=C\c1ccc(OC)cc1)NC(=O)c1ccco1	-2	-15	0	-5%	-3.3	-1%
O=C(NCCN1CCOCC1)c1ccccc1N1C(=O)[C@@H]2Cc3c([nH]c4ccccc34)C(c3ccccc3)N2C1=O (stereo partly drawn)	-2	-86	-5	-17%	-5.6	x
N#CC(C#N)=C1C(=O)N(CCN2CCOCC2)c2ccccc21	-3	-1	0	1%	2.7	6%[15.4 µM]
O=C(O)c1cc(S(=O)(=O)Nc2ccc3cn[nH]c3c2)ccc1Br	-1	2	-5	3%	-1.0	-6%
CC(=O)c1ccc(N2CCN(C(=S)NCc3ccco3)CC2)cc1	3	3	0	u	0.3	u
Cc1ccc(-c2nc(C=Nc3ccc(O)cc3)c(O)o2)cc1	x	-17	-1	-2%	11	-52%[inhibitor]
O=C(COc1ccccc1[N+](=O)[O-])N(Cc1cccc(Br)c1)C1CCS(=O)(=O)C1 (stereo not drawn)	-20	-11	-1	-11%	-0.2	-1%
O=C1C2CCCN2C(c2ccccc2)N1c1cccc(Cl)c1 (stereo not drawn)	3	-3	4	1%	-2.2	-5%
CNCC(O)COc1cccc(OC)c1 (stereo not drawn)	-5	-31	-13	5%	-5.9	19%[15.4 µM]
COc1ccc(N2CCN(S(=O)(=O)CCNC(=O)Cc3ccc([N+](=O)[O-])cc3)CC2)cc1	6	-2	2	-5%	-0.8	-31%[inhibitor]
CCOc1ccc(-c2c(C(=O)N/N=C(\C)c3cccs3)nnn2-c2nonc2N)cc1	11	-5	0	0%	-9.1	-91%[inhibitor]
The list goes on.
SMILES	CtBP-E1A inh	D2 potentiator	Six1-Eya2 inh	gsp antag	D2 agonist	gsp agonist
Cc1ccc(OCC(=O)Nc2ccc(N3CCN(C(=O)c4ccc(C)cc4)CC3)cc2)cc1	-14	-9	-4	1%	-0.9	27%
CC(C)(C)SCCNC(=O)CN(c1ccccc1)S(=O)(=O)c1ccccc1	4	-2	-1	-1%	7.0	1%
CCNc1cc(O)ccc1C	4	5	7	-19%	u	x
N#Cc1ccc(-c2ccc(F)cc2)nc1Oc1ccccc1	10	-16	11	-4%	-2.6	20%
OCC[C@@H]1C[C@@H](O)[C@H](O)[C@@]2(OCc3ccccc32)O1	1	-8	8	10%	-4.0	25%
CCN(CC)S(=O)(=O)c1cccc(NC(=O)CN2C(=O)c3ccc([N+](=O)[O-])cc3C2=O)c1	-5	u	-1	-5%	4.8	23%
COc1ccc(-c2oc3ccccc3c(=O)c2OCC(=O)O)cc1	4	-2	-1	-19%	-0.1	-1%[15.4 µM]
CCOC(=O)C1(Cc2ccccc2C#N)CCCCC1=O (stereo not drawn)	8	3	8	3%	3.4	-3%
CC(C)=CC(=O)Nc1nnc(C)s1	2	-1	2	-5%	-3.5	-70%[inhibitor]
COc1ccc(C(=O)N[C@H](C(=O)OCc2nc3ccsc3c(=O)[nH]2)C(C)C)cc1	-10	-29	3	0%	0.1	3%[15.4 µM]
COC(=O)c1ccc(C(=S)N2CCCCC2)cc1	0	-1	-4	7%	-1.8	11%
Cc1cccc(N(C(=O)Cn2nnc3ccccc32)C(C(=O)NCc2ccco2)c2ccncc2)c1C (stereo not drawn)	0	-19	-6	0%	0.0	4%
COc1ccc(CC(NC(C)=O)C(=O)NC2CCN(c3c4c(nc5ncnn35)CCC4)CC2)cc1 (stereo not drawn)	-4	10	-3	7%	-3.0	u
CC(=O)NC1=NN(C(C)=O)C2(S1)C(=O)N(C(C)C)c1ccc(C)cc12 (stereo not drawn)	0	-7	4	-3%	-2.8	-3%

Another view of part of the listing above.
COc1ccc(-c2oc3ccccc3c(=O)c2OCC(=O)O)cc1
  CtBP-E1A inh: 4
  D2 potentiator: -2
  Six1-Eya2 inh: -1
  gsp antag: -19%
  D2 agonist: -0.1
  gsp agonist: -1%[15.4 µM]

COC(=O)c1ccc(C(=S)N2CCCCC2)cc1
  CtBP-E1A inh: 0
  D2 potentiator: -1
  Six1-Eya2 inh: -4
  gsp antag: 7%
  D2 agonist: -1.8
  gsp agonist: 11%

CC(C)(C)SCCNC(=O)CN(c1ccccc1)S(=O)(=O)c1ccccc1
  CtBP-E1A inh: 4
  D2 potentiator: -2
  Six1-Eya2 inh: -1
  gsp antag: -1%
  D2 agonist: 7.0
  gsp agonist: 1%

3 structures already listed, sorted by count of non-hydrogen atoms, descending.
SMILES	CtBP-E1A inh	D2 potentiator	Six1-Eya2 inh	gsp antag	D2 agonist	gsp agonist
CCOC(=O)c1ccc(N2C(=O)CC(NC3CCN(C(=O)c4cccc(Cl)c4)CC3)C2=O)cc1 (stereo not drawn)	-6	-1	-3	-18%	-3.0	10%
COCc1nnc(NC(=O)c2cccc(NC(=O)c3ccccc3)c2)s1	0	-4	3	-1%	-5.4	-8%[15.4 µM]
CC(=O)NS(=O)(=O)c1ccc(NC(=O)c2ccccc2F)cc1	7	-7	5	6%	1.6	-30%

Screens deposited in PubChem BioAssay by National Center for Advancing Translational Sciences (NCATS).
